# Screening results (PubChem)
# CapD inh – blocks the Bacillus anthracis CapD enzyme | z-score (test concentration not listed) | 0.23% of 140,000 active | AID 492967 | purified CapD enzyme, fluorescence intensity read-out; hits give low values; some hits fall short of the stated cut;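 active = z-score under -4 in either of two replicates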;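 note: stock transfer was 100 nL into about 40 µL; score is relative to mean and spread of the plate; one replicate is shown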
# AID504770 – E. coli YBA685 growth inhibition, screen for V. cholerae RctB inhibitors | z-score (test concentration not listed) | E. coli YBA685 rctB-dependent plasmid, OD600 growth, 3 h; hits give low values | 0.27% of 130,000 active;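 active = z-score under -2 on both plates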;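 note: wells of about 30 µL received 100 nL stock; score is relative to mean and SD of the test wells; the first replicate is given; strong numbers were not always called active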
# * = called active by the depositor; i = inactive; x = no result given. This is a random part of the collection, and some 0.39% of all compounds hit somewhere here.
SMILES | CapD inh | AID504770
CCOC(=O)c1cnc2c(OC)cccc2c1N1CC(C)CC(C)C1 (stereo not given) | 7.8 | -0.2
COc1cc(-n2cccc2)cc(C(F)(F)F)c1 | 0.71 | x
CNC(=S)N1CCCC1C(=O)Nc1ccc(Cl)cc1 (stereo not given) | 0.015 | -0.7
CSc1nc2cc(C)nn2c(N)c1C#N | 0.16 | -0.3
Cn1cc(Br)c(NS(=O)(=O)c2ccccc2C(F)(F)F)n1 | -0.35 | -0.55
CC1(C)CC2(CCCN(CC#N)C2)CCS1 (stereo not given) | 0.43 | 0.3
O=S(=O)(c1ccc(-n2cccn2)cc1)N1CCn2c1nc1ccccc12 | 0.13 | 0.15
COc1cc2c(cc1OC)-c1n[nH]c(=S)n1C(C)(C)C2 | x | 0.3
O=C(CSc1ncn(-c2ccccc2)n1)Nc1ccc(N2CCOCC2)cc1 | -0.34 | -0.4
CCOC(=O)C1=NN(c2ccc(Cl)cc2)C2C(=O)N(c3ccccc3[N+](=O)[O-])C(=O)C12 (stereo not given) | -0.27 | x
O=C(CSc1nc2cc3c(cc2c(=O)n1CCC(=O)N1CCN(c2ccccc2)CC1)OCO3)c1ccccc1 | -0.35 | 0.35
CC1(C)CC(=O)C2=C(C1)Nc1nc(N)[nH]c(=O)c1C2c1ccc(F)cc1 (stereo not given) | 6.8 | 0

# Quoted from the listing.
# Value for CC1(C)CC(=O)C2=C(C1)Nc1nc(N)[nH]c(=O)c1C2c1ccc(F)cc1 (stereo not given) under AID504770: 0
# Value for CNC(=S)N1CCCC1C(=O)Nc1ccc(Cl)cc1 (stereo not given) under AID504770: -0.7

# Remaining list, next part:
SMILES | CapD inh | AID504770
Cc1nn(-c2cccc(C(F)(F)F)c2)c2sc(C(=O)NC3=NCCS3)cc12 | x | -0.55
Cc1ccc(S(=O)(=O)/N=C(\c2ccccc2)n2nnc3ccccc32)cc1 | x | 2.8
CCc1cccc(NC(=O)CC(=O)Nc2ccc3nc4n(c(=O)c3c2)CCCCC4)c1 | 5.1 | 0.6
COc1ccc(NC(=S)NC(=O)COc2ccccc2)cc1 | 0.28 | 0.65
Cc1cc(=O)[nH]c(SCC(=O)N2CCc3ccccc32)n1 | x | -0.5
O=C1NC(=S)N(c2ccccc2)C(=O)C1C(c1ccc([N+](=O)[O-])cc1)C1C(=O)NC(=S)N(c2ccccc2)C1=O (stereo not given) | -1.9 | x
COC(=O)Nc1ccc(S(=O)(=O)N(C)CC(F)(F)C(F)F)cc1 | x | -0.3
CN(C(=O)c1ccccc1C(=O)O)C1CCCCC1 | x | -0.6
CCSc1nnc(-c2ccc(OC)cc2)n1-c1ccccc1 | 0.02 | -0.85
Cc1ccn2cc(CNS(=O)(=O)c3ccc(Cl)s3)nc2c1 | 0.08 | -0.15
CCOC(=O)c1c(C)c(C#N)c(NC(=O)C(C)(C)C)n1-c1ccccc1 | -0.02 | -0.65
CSc1cccc(NS(=O)(=O)c2ccc(-n3cccn3)cc2)c1 | 0.08 | -0.8

# By substructure, the entries above with two or more sulfur atoms
SMILES | CapD inh | AID504770
Cc1nn(-c2cccc(C(F)(F)F)c2)c2sc(C(=O)NC3=NCCS3)cc12 | x | -0.55
O=C1NC(=S)N(c2ccccc2)C(=O)C1C(c1ccc([N+](=O)[O-])cc1)C1C(=O)NC(=S)N(c2ccccc2)C1=O (stereo not given) | -1.9 | x
Cc1ccn2cc(CNS(=O)(=O)c3ccc(Cl)s3)nc2c1 | 0.08 | -0.15
CSc1cccc(NS(=O)(=O)c2ccc(-n3cccn3)cc2)c1 | 0.08 | -0.8

# (listing goes on)
SMILES | CapD inh | AID504770
CN(C)CC(=O)Nc1ccc(Cl)cc1 | -0.035 | -0.4
CCOC(=O)C1=C(N)Oc2ccc3ccccc3c2C1c1ccc(Br)cc1 (stereo not given) | 0.24 | x
Cc1cccc(Oc2ccc(N3C(=O)C4C5C=CC(C5)C4(C)C3=O)cc2)c1C (stereo not given) | -0.045 | 1.7
O=C(NC1CC1)c1ccc2c(c1)N(Cc1ccccc1)C(=O)CS2 | 4.3 | -0.15
CCNC(=S)Nc1ccc(N2CCCCC2)cc1 | x | 1.4
O=C(O)CC1(CC(=O)Nc2ccc(Br)cc2)CCCC1 | x | 0.15
CC(=O)N1CCN(C(=O)COc2ccc(C#N)cc2)CC1 | -0.11 | 1.4
COc1ccc(C2N3CC(C)(C)CN23)cc1OC (stereo not given) | 0.52 | 0.05
O=C(CCNC(=O)N1CCc2ccccc21)c1ccccc1 | 0.14 | x
CN1CCN(C2c3ccccc3-n3cccc32)CC1 (stereo not given) | -0.085 | x
CC1CCN(C(=O)CN2C(=O)c3ccccc3S2(=O)=O)CC1 | -0.29 | -0.2
Cc1ccc(S(=O)(=O)N2CCN(C/C=C/c3ccccc3)CC2)c(C)c1C | -0.37 | 0.25

# Retrieved one by one from the entries so far (5):
SMILES | CapD inh | AID504770
CCOC(=O)C1=C(N)Oc2ccc3ccccc3c2C1c1ccc(Br)cc1 (stereo not given) | 0.24 | x
CC1CCN(C(=O)CN2C(=O)c3ccccc3S2(=O)=O)CC1 | -0.29 | -0.2
CC(=O)N1CCN(C(=O)COc2ccc(C#N)cc2)CC1 | -0.11 | 1.4
CCNC(=S)Nc1ccc(N2CCCCC2)cc1 | x | 1.4
O=C(O)CC1(CC(=O)Nc2ccc(Br)cc2)CCCC1 | x | 0.15

# (cont.)
SMILES | CapD inh | AID504770
Cc1[nH]c2ccccc2c1SCCNC(=O)Cc1ccccc1 | 0.21 | -1.1
Cc1ccc(OC(C)C(=O)N(C)c2ccccc2)cc1 (stereo not given) | 0.05 | -0.05
CC(C)(C)NC(=O)NCCc1ccccc1 | 0.43 | x
CC1CCCN(Cc2cn3c(-c4cccc(Br)c4)nnc3s2)C1 (stereo not given) | x | 2
COc1ccc(/C=N/NC(=O)Cc2csc(-c3ccccc3)n2)cc1C | 0.7 | x
COc1ccccc1NC(=O)C1CC(=O)NC(=Nc2ccc(C)cc2)S1 (stereo not given) | 0.03 | 1.3
c1cc2c(cc1C1CCCN1)OCCCO2 (stereo not given) | x | 0.2
COc1ccccc1C(=O)Nc1cnn(Cc2ccccc2C)c1 | 0.14 | -0.45
CCOC(=O)c1sc(NC(=O)CSc2nnc(Cn3nnc4ccccc43)n2C)nc1C | x | 0.3
COc1ccc(-c2ccc(=O)[nH]n2)cc1OC | -0.77 | -1.6
CCc1c2c(nn1-c1cc(Cl)ccc1OC)CCCC2=O | 0.11 | -0.05
COCCNS(=O)(=O)c1ccc2c(c1)Cc1cc(S(=O)(=O)NCCOC)ccc1-2 | 0.57 | -0.4
COc1cccc(NC2=NCCCCC2)c1 | -0.42 | -0.3
COc1ccccc1/C=C(/C(=O)O)c1ccccc1 | 0.63 | 0.2
CC(C)c1nnc(NC(=O)c2c(F)cccc2F)s1 | i | -0.95
CCn1c2ccccc2c2nnc(N3CCc4ccccc4C3)nc21 | -0.025 | -0.5
C=C1SC(Nc2cccc(C(F)(F)F)c2)=NC12CCCCC2 | -0.22 | x
Cc1ccc(CNC(=O)C2CNc3cc(C)ccc3O2)cc1 (stereo not given) | 0.27 | -1.2
O=C1c2ccccc2OCC12COC(c1ccccc1)OC2 (stereo not given) | 0.18 | 0.5
O=C(/C=C/c1c(Cl)nc2ccccn12)N1CCCCC1 | x | 0.25
Cc1nc(Cl)c2cc(-c3ccccc3)sc2n1 | 2 | -0.95
Cc1cc(-c2noc(-c3cccc(F)c3)n2)c2ccccc2n1 | -0.2 | 1.8
COc1cccc(NC(=O)COC(=O)CC23CC4CC(CC(C4)C2)C3)c1 | -0.69 | -0.85
O=S(=O)(Nc1ccc2c(c1)OCCO2)c1cnc[nH]1 | -0.15 | -1.1
CC(=O)OCC12COC3c4ccccc4OC(C)(CC1C)C3C2C (stereo not given) | -0.15 | -0.3
COC(=O)COc1cc(C)ccc1C | 0.21 | 0.7
NC(=O)c1ccc(CC(=O)c2ccc(Cl)cc2)cc1 | 2.5 | -0.7
COc1ccccc1Nc1ncc(C(=O)NCCc2ccc(OC)c(OC)c2)c2ccccc12 | 0.7 | 0.3
CC1CC(OCC(O)C[N+]2(C)CCOCC2)CC(C)(C)C1 (stereo not given) | 0.46 | 0.15
CCNS(=O)(=O)c1ccc(NC(=O)Nc2cccc(Cl)c2Cl)cc1 | -0.03 | -0.8
CC1(c2ccccc2)COC2(OC1)C(=O)N(CN1CCCCC1)c1ccccc12 (stereo not given) | 1.2 | x
S=c1cc(-c2ccc(Cl)cc2)ss1 | -1.6 | 0.3
CC(=O)Nc1c(O)[nH]c2ccccc12 | -0.58 | -0.35
CS(=O)(=O)Nc1ccc(/C(N)=N/O)cc1 | -0.55 | -0.85
Cc1ccc(-n2ncc3c(=O)[nH]c(SCC(=O)NCc4ccco4)nc32)cc1 | 9.1 | x
COc1ccc(C(C)=O)cc1N1C(=O)C2C3C=CC(C3=C(c3ccccc3)c3ccccc3)C2C1=O (stereo not given) | -1.9 | x
COc1cccc(Nc2nnc(-c3cc4cccc(OC)c4oc3=O)s2)c1 | 0.49 | 1.5
COCCn1c(C)cc(/C=C2\C(=O)Nc3cc(Cl)ccc32)c1C | x | -0.2
O=S1(=O)CCC(Cc2nc3ccccc3[nH]2)C1 (stereo not given) | x | -0.2
COc1ccc(OCCSc2nnc(C(F)(F)F)n2N)cc1 | x | 0.05
O=S(=O)(/N=C/c1cccnc1)c1cccs1 | x | 0.4
Cc1nn(C)c(NC(=O)c2ccccc2Cl)c1Br | -0.2 | x
CN(C)c1ccc(CNC(=O)OCc2cccc(OCc3ccccc3)c2)cc1 | 0.03 | x
COC(=O)c1c(NC(=O)c2c(-c3ccccc3)noc2C)sc2c1CCC(C(C)(C)C)C2 (stereo not given) | -0.32 | x
CC(C)OC(=O)c1cc2ccccc2oc1=O | 21 | -1.2
O=C1/C(=C/c2ccc(F)c(F)c2)CCC/C1=C\c1ccc(F)c(F)c1 | 0.19 | 0
Cc1ccc(-n2nc3c(c2NC(=O)Cc2ccccc2)CSC3)c(C)c1 | -0.14 | -0.85
Cc1ccc(CCn2c(C)c(C)c3ccccc32)cn1 | -1 | -0.65
COc1ccccc1C(=O)Nc1ccc2oc(-c3ccc4ccccc4c3)nc2c1 | 0.015 | -0.5
O=C(CSc1nc2[nH]ncc2c(=O)n1-c1cccc(C(F)(F)F)c1)N1CCN(c2ccccc2)CC1 | -0.61 | x
CCCCNC(=O)c1ccc(C#N)cc1 | x | 0.4
O=C(Cc1ccccc1)N1CCOCC1 | 0.17 | -0.2
CC(C)(C)c1ccc(C(=O)c2c[nH]c(C(=O)NCc3cccnc3)c2)cc1 | -0.13 | x
N#CC1=C(N)OC2=C(CCc3ccccc32)C1c1ccccc1 (stereo not given) | x | 0.25
O=C(CSc1ncn[nH]1)c1ccc(F)cc1 | -1 | x
Cc1cc(NC(=O)/C=C\c2ccccc2)nc2c1c(=O)oc1ccccc12 | 0.46 | -0.5
Cc1cc(C)c(C#N)c(SCC(=O)N2c3ccccc3NC(=O)C2(C)C)n1 | x | 0.1
CN(C)c1ccc(C2CC(=O)CC(=O)C2)cc1 | -0.23 | x
NC(=O)C1CCN(C(=O)CC2(CC(=O)O)CCCCC2)CC1 | x | 1.9
CC(=O)n1c(=O)oc2ccc(C)cc21 | -0.27 | -0.5

# The list goes on:
SMILES | CapD inh | AID504770
COc1ccc(-c2noc(CC(=O)N(C)c3cc(C)ccc3C)n2)cc1 | -0.35 | 0.65
NNC(=O)/C(=C/c1cn(-c2ccccc2)nc1-c1ccccc1)NC(=O)c1ccc(Cl)cc1Cl | -0.065 | x
CN(C(=O)c1cc2nc(-c3ccco3)cc(C(F)(F)F)n2n1)c1ccc(OC(F)(F)F)cc1 | 1.1 | -1
Cc1nnc(NC(=O)c2ccc3ccccc3c2)s1 | 0.33 | 1.7
Cc1ccc(Cl)cc1NC(=O)CC(NCC1CCCO1)C(=O)O (stereo not given) | -0.42 | -0.35
Cc1nc2ccccc2n1C(C)c1ccccc1 (stereo not given) | x | -0.9
CCCC1CCC(C(=O)Nn2cnc3ccccc3c2=O)CC1 (stereo not given) | -0.22 | 0.35
CC(=O)Nc1cc(-c2ccc(Cl)cc2)[nH]n1 | x | 1.9
Cc1cccc(NC(=O)c2cc(S(=O)(=O)N3CCN(Cc4ccc5c(c4)OCO5)CC3)ccc2F)c1C | -0.18 | x
CC(=O)Nc1ccc(Cl)cc1-c1nc2ccc(C)cc2[nH]c1=O | x | -0.35
CC(=O)N1CCc2c([nH]c3ccccc23)C1C(F)(F)F (stereo not given) | 0.47 | 0.95
O/N=C/c1ccc(OCc2ccccc2)cc1 | -0.11 | 0.75
COc1ccc(C2c3ccsc3CCN2C(=O)C(C)(C)C)cc1 (stereo not given) | -0.75 | 2
CCC(C)NC(=O)c1ccc(/C=C2/Sc3ccccc3NC2=O)cc1 (stereo not given) | 0.21 | 0.75
C(=N\Nc1nc2ccccc2s1)/c1ccc2ncccc2c1 | x | 0
NNc1cc(C(F)(F)F)nc2ccccc12 | 0.32 | 0.15
COc1cc(/C=c2/sc3nc4cc(C)c(C)cc4n3c2=O)ccc1OCc1ccc(C)cc1 | 0.43 | x
N=c1ccccn1CC(O)c1ccccc1 (stereo not given) | 3.8 | -0.85
CN1C(=O)CC(c2ccccc2)C1=O (stereo not given) | 0.56 | x
O=C(NCCCN1CCOCC1)c1cc(-c2ccco2)nc2ccccc12 | x | 0.4
CCN(C(=O)/C=C/c1ccccc1)c1nnc(Cn2nnc3ccccc32)s1 | x | 0.15
CCCNC(=O)C1CC(c2cccc(OC)c2)=NO1 (stereo not given) | -0.26 | -0.55
CN(Cc1nc2ccccc2c(=O)[nH]1)C(C(=O)NC(N)=O)c1ccccc1 (stereo not given) | x | -1.6
O=C(NCc1ccc2c(c1)OCO2)c1nnc(-c2ccccc2)o1 | -0.065 | -0.25
CCN(CC)C(=O)/C(=C\c1ccc(OC)c(OC)c1)n1ccccc1=O | x | 1.4
COc1ccc(/C=N/n2c(=O)c(C(C)(C)C)nn3cnnc23)c(OC)c1 | 2.6 | -0.2
O=S(=O)(c1cccs1)n1ccc(-c2cnc(-c3ccccc3)s2)n1 | 5.1 | x
COc1c(N)c2ccccc2[nH]c1=O | x | 0.3
O=C(Nc1cccc(C(F)(F)F)c1)c1c(Cl)nc2sccn12 | x | -0.35
